Yeast UUG start: modulators of yeast start codon fidelity, primary screen, whole organism, S. cerevisiae, single point, plate reader | S. cerevisiae UUG-firefly luciferase reporter, luminescence/redox ratio | activity score, % at 18.7 µM | 350,000 tested, 0.13% active | AID 602363, 2012;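 active means replicate mean at a twofold rise or more, about +100% in these data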;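 further: firefly luciferase made from a UUG start codon reports start codon fidelity; reporter light over untreated wells divided by growth signal over untreated wells; some hits fall short of that in this replicate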
eIF4H inh: human eIF4H binding inhibitors, primary screen, translation initiation inhibitor project, biochemical, uHTS, fluorescence polarization; Eukaryotic translation initiation factor 4H (Homo sapiens), Q15056; eIF4H fluorescence polarization binding assay; inhibition, % at 35 µM; 290,000 tested, 0.94% active; AID 2012, 2009;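 active means 50% or more with normal probe brightness, or confirmed in later tests; about a fifth of its hits are not listed in these tables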;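 further: calls also rest on retests at 20 µM and on dose response follow-up; 0% = protein and probe with vehicle and 100% = probe without protein; strong numbers were not always called active; many hits fall short of the cut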
HIV Env fusion: inhibitors of HIV-1 Env-driven cell-cell fusion, primary screen, HeLa-JRFL effector, CEM21 target cells, luciferase. 360,000 tested, 1.1% active. inhibition, % at 12.3 µM;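 active means mean replicate inhibition score of at least 50 and every replicate individually at or above 50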;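 further: 0% = plate neutral controls and 100% = maraviroc near 300 nM; one replicate is shown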
Rce1 inh: yeast Rce1p protease inhibitors, primary screen, biochemical, fluorescence, cell-free homogeneous; CAAX prenyl protease 2 (Saccharomyces cerevisiae (strain ATCC 204508 / S288c)), Q03530; yeast membranes, quenched prenylated peptide cleavage fluorescence; calls only; 290,000 tested, 0.27% active; AID 2563, 2010;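 active means fall in fluorescence gain of 50% or more versus controls, with final raw signal at or below 3038400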;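 further: plate controls were neutral control wells for no effect and wells lacking membranes for full effect; tested at 10 µM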
PABP FP inh: PABP poly(A) RNA binding inhibitors, primary screen, biochemical, fluorescence polarization, uHTS. Polyadenylate-binding protein 1 (Homo sapiens), P11940. inhibition, % at 35 µM. 290,000 tested, 1% active;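 active means 50% or more with normal probe brightness, or confirmed in later tests; about a fifth of its hits are not listed in these tables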;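 further: calls also rest on retests at 20 µM and on dose response follow-up; controls were probe without protein and protein plus probe with vehicle; some compounds called inactive have numbers as strong as hits; many hits fall short of the cut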
Target sequence (P11940 whole entry, looked up): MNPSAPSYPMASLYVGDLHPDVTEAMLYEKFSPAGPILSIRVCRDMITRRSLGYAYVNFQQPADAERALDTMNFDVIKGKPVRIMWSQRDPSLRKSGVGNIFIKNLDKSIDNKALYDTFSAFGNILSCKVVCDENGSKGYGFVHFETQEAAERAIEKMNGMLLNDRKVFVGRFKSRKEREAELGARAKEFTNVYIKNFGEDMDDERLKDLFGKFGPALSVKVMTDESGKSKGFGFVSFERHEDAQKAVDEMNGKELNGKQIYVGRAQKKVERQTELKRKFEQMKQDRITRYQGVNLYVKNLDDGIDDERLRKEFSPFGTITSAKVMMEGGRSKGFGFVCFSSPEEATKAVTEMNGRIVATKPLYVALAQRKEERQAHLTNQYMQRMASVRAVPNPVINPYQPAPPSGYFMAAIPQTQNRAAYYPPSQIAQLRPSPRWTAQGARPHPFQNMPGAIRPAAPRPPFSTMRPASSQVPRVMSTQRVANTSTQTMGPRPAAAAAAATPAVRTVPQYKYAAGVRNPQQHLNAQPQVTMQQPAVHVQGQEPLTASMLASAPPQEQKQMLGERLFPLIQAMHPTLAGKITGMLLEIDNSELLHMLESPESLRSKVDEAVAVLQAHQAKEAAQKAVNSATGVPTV
CSC inhib: cancer stem cell viability inhibitors, primary screen, luminescence; cancer stem cell-like cells viability; inhibition, % at 7.5 µM; 300,000 tested, 1.1% active;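 active means mean at 75% or more and at least half the replicates too; tested in HMLE shEcad cells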;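 further: 0% = median of negative and 100% = median of positive control wells; the first replicate is given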
MT1-MMP act inh: blockers of MT1-MMP proenzyme processing, primary screen, HT1080 RFP-PRO-GFP cells, GFP/RFP fluorescence; GFP/RFP ratio fluorescence, overnight; percent of plate control window, DMSO zero; 360,000 tested, 0.061% active; Matrix metalloproteinase-14 (Homo sapiens), P50281; GFP/RFP ratio change, % at 20 µM;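 active means GFP/RFP ratio change of at least 30% with cell ATP level not reduced by more than half and red fluorescence within 50% of control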; further: strong numbers were not always called active
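Test system: HT1080 cells expressing an RFP-PRO-GFP fluorescent reporter construct / Compound dosing: single-point 20 µM compound, 1% DMSO / Schedule: cells overnight before dosing, compound overnight, 37 °C, 5% CO2 / Evaluation: GFP/RFP fluorescence ratio / Control set: DMSO and RFP-L50D-GFP cell wells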
MT1-MMP act inh RFP: also measured in MT1-MMP act inh; calls as there; RFP signal change, %; measured here: RFP expression control read;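 0 = vehicle wells; hits needed this value within 50% of zero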
Active calls of the source: *; i = inactive; nt = no result given; & = joins results of further samples; [ ] = another dose, or the depositor's remark. An excerpt (hit frequency here may not be typical).

SMILES | Yeast UUG start | eIF4H inh | HIV Env fusion | Rce1 inh | PABP FP inh | CSC inhib | MT1-MMP act inh | MT1-MMP act inh RFP
COc1ccc(C(=O)NC(C)c2csc(C)n2)cc1OC1CCN(C(C)=O)CC1 (stereo not drawn) | -3.9 | -17.9 | -67.6 | i | -10.0 | 15.6 | -2.2 | 3.5
CC(C)N1C(=O)C(Cc2nc3ccccc3c(=O)n2-c2ccccc2)c2ccccc21 (stereo not drawn) | -5.8 | -0.5 | nt | i | 4.7 | 12.0 | 2.0 | 0.0
Cc1cc(NC(=O)CCCN2C(=O)c3cccc4cccc(c34)C2=O)no1 | nt | -2.0 | -7.3 | i | -6.8 | 0.5 | -1.3 | 2.6
O=C(Nc1ccc(-c2nc3ccccc3[nH]2)cc1)c1ccc2c(c1)OCO2 | -8.0 | -34.9 | nt | i | -42.5 | -8.8 | 11.5 | 7.2
CC(CCc1ccccc1)NC(=O)c1ccc(NC(=O)c2ccccc2)cc1 (stereo not drawn) | 2.4 | -4.0 | 15.7 | i | 39.9 | -1.2 | 4.6 | -4.3
O=C(Nc1ccc(CN2CCOCC2)cc1)c1ccc(-c2cccc([N+](=O)[O-])c2)o1 | -13.5 | 34.4 | 14.4 | i | 1.9 | 0.9 | 5.0 | -11.7
CC(=O)NC(CCS(C)(=O)=O)C(=O)Nc1cc(C)on1 (stereo not drawn) | -15.1 | 4.7 | -2.5 | i | 6.0 | 5.7 | 2.1 | 3.0
CCOc1ccc(C(=O)Nc2c3c(nn2-c2cccc(C)c2C)CS(=O)C3)cc1 (stereo not drawn) | -24.5 | -7.5 | 11.2 | i | 11.6 | 3.5 | 1.2 | -1.0
COc1ccc(OCc2cc(-c3ccc(Cl)cc3)no2)cc1 | -15.1 | -6.0 | -1.3 | i | 4.3 | 4.9 | 5.6 | 5.5
CC1(C(=O)NS(=O)(=O)c2cccc(Cl)c2)CCN1C(=O)C/C=C/c1ccccc1 (stereo not drawn) | 4.6 | nt | -5.5 | nt | nt | nt | 0.9 | -1.5
CC(C)n1c(N2CCN(C(=O)c3cccs3)CC2)nc2ccccc21 | -12.7 | -3.1 | -161.6 | nt | 2.7 | nt | -1.5 | -2.9
O=C(CNc1n[nH]c(=O)[nH]c1=O)N/N=C/C1CC=CCC1 (stereo not drawn) | nt | -2.7 | 12.1 | i | -2.9 | -9.6 | 2.6 | 2.4
COc1cc(C(=O)NCC(=O)NC(C)CCc2ccccc2)cc(OC)c1OC (stereo not drawn) | -18.7 | 8.9 | -0.2 | i | -11.1 | nt | -0.7 | 1.1
S=c1[nH]nc(-c2ccc(Cl)cc2)n1/N=C/c1ccco1 | nt | -7.0 | 6.7 | nt | -7.9 | 8.9 | -2.5 | -3.8
COCCOC1CCN(C(=O)C2CCC(=O)N(CCc3ccccc3)C2)CC1 (stereo not drawn) | -12.8 | -22.4 | -0.9 | i | -2.8 | 13.7 | -5.3 | 0.8
N#Cc1ccccc1S(=O)c1ccccc1C(=O)Nc1ccccc1 (stereo not drawn) | -1.1 | -2.1 | -10.5 | i | 0.8 | -9.4 | 4.0 | -1.2
O=C(Nc1csc([N+](=O)[O-])c1)Nc1ccccc1Cl | nt | -1.9 | 2.9 | i | -0.1 | 10.3 | -2.7 | -18.3
COc1ccc(OCCOC(=O)c2[nH]c(C)c(C(C)=O)c2C)cc1 | nt | 1.1 | -3.8 | i | 34.1 | 10.2 | -7.5 | -22.6
Cc1ccc(C(=O)/C=C/c2ccccc2[N+](=O)[O-])cc1 | nt | -10.8 | -11.3 | i | -6.4 | 8.8 | -5.7 | -2.0
CCOc1ccc(NS(=O)(=O)c2ccc(C(=O)N(CC)CC(=O)NCc3cccs3)cc2)cc1 | -23.2 | 34.1 | 5.9 | i | 47.5 | 7.6 | 3.7 | -4.9
CCCCNc1ncnc2c1cnn2-c1ccccc1 | -2.9 | 1.1 | nt | i | 3.7 | -13.5 | -0.7 | -15.9
Cc1ccc(S(=O)(=O)NC(=O)NCc2ccc(F)cc2)cc1 | nt | 2.2 | 6.6 | i | 5.0 | 2.0 | -11.1 | 0.9
COc1cccc2c1OC1(C)CC2NC(=O)N1c1cccc(C(=O)Nc2ccc3c(c2)OCCO3)c1 (stereo not drawn) | -31.2 | 5.5 | nt | i | 4.4 | -2.1 | -1.9 | 5.1
COc1cccc(-c2sc3ccc(OC)cc3c2-c2ccc(OC)cc2F)c1 | -6.5 | nt | -13.9 | nt | nt | 38.8 | -0.1 | -0.5
CCOC(=O)c1oc2cc(OCC(=O)OC)ccc2c(=O)c1-c1ccc(OC)c(OC)c1 | -9.9 | -11.3 | -2.6 | i | 5.8 | -11.9 | -0.2 | 4.5

Grouped by structure, the compounds so far containing four or more nitrogen atoms.
SMILES | Yeast UUG start | eIF4H inh | HIV Env fusion | Rce1 inh | PABP FP inh | CSC inhib | MT1-MMP act inh | MT1-MMP act inh RFP
CC(C)n1c(N2CCN(C(=O)c3cccs3)CC2)nc2ccccc21 | -12.7 | -3.1 | -161.6 | nt | 2.7 | nt | -1.5 | -2.9
O=C(CNc1n[nH]c(=O)[nH]c1=O)N/N=C/C1CC=CCC1 (stereo not drawn) | nt | -2.7 | 12.1 | i | -2.9 | -9.6 | 2.6 | 2.4
S=c1[nH]nc(-c2ccc(Cl)cc2)n1/N=C/c1ccco1 | nt | -7.0 | 6.7 | nt | -7.9 | 8.9 | -2.5 | -3.8
CCCCNc1ncnc2c1cnn2-c1ccccc1 | -2.9 | 1.1 | nt | i | 3.7 | -13.5 | -0.7 | -15.9

One compound at a time, as listed above:
`COc1cccc(-c2sc3ccc(OC)cc3c2-c2ccc(OC)cc2F)c1` as listed: Yeast UUG start = -6.5; eIF4H inh = nt; HIV Env fusion = -13.9; Rce1 inh = nt; PABP FP inh = nt; CSC inhib = 38.8; MT1-MMP act inh = -0.1; MT1-MMP act inh RFP = -0.5
`COc1ccc(C(=O)NC(C)c2csc(C)n2)cc1OC1CCN(C(C)=O)CC1` (stereo not drawn) as listed: Yeast UUG start = -3.9; eIF4H inh = -17.9; HIV Env fusion = -67.6; Rce1 inh = i; PABP FP inh = -10.0; CSC inhib = 15.6; MT1-MMP act inh = -2.2; MT1-MMP act inh RFP = 3.5

(listing goes on)
SMILES | Yeast UUG start | eIF4H inh | HIV Env fusion | Rce1 inh | PABP FP inh | CSC inhib | MT1-MMP act inh | MT1-MMP act inh RFP
CC(C)COP(=O)(OCC(C)C)C(O)c1ccc(F)cc1 (stereo not drawn) | nt | 3.4 | nt | i | -5.2 | -11.5 | -1.5 | 1.7
CCN(CCn1cccn1)Cc1cn[nH]c1-c1ccc(OC)cc1F | -2.5 | -6.6 | 6.0 | i | 8.6 | -5.7 | -1.7 | -1.7
CCn1c(CNC(=O)COc2c(C)cccc2C)nnc1SCC(=O)Nc1nccs1 | nt | -11.3 | nt | i | -3.2 | -9.3 | 1.8 | 0.0
CN(C)S(=O)(=O)c1cccc(C(=O)NCC(C)(C)CNC(=O)c2cccc(S(=O)(=O)N(C)C)c2)c1 | 4.9 | -15.6 | -47.9 | i | 8.8 | -8.6 | -2.0 | -2.2
C=C1[C@@H](OC(C)=O)CC[C@]2(C)[C@@H]1C[C@@H]1C[C@H](OC(C)=O)C(C)=C([C@@H](OC(C)=O)[C@@H]2OC(C)=O)C1(C)C | 3.1 | -17.9 | 5.6 | i | -13.1 | 0.6 | 2.9 | -1.3
O=C(NCC1CCCO1)C(=O)N/N=C/c1ccccc1C(=O)O (stereo not drawn) | nt | -10.4 | 1.3 | i | 10.6 | nt | -4.0 | 5.8
COc1ccccc1C1=CC(=O)CC(C)(C)C1=O | -6.1 | nt | 10.5 | nt | nt | 3.2 | 0.8 | -0.9
CCOC(=O)c1c(C)[nH]c(C(=O)N2CCc3cc(OC)c(OC)cc3C2)c1C | -19.3 | nt | 5.6 | i | nt | 9.1 | 0.1 | -1.5
COC(=O)C1=C(C)N(C)C(=O)NC1c1ccccc1 (stereo not drawn) | -17.4 | -0.8 | nt | i | 11.9 | -5.9 | 2.3 | 4.2
O=C(Cc1ccccc1)Nc1ncnc2c1C(c1ccccc1)c1c(ccc3ccccc13)O2 (stereo not drawn) | -3.8 | nt | 68.1* | nt | nt | 42.0 | -8.4 | -12.2
COC(=O)c1sc(-c2ccccc2)cc1NC(=O)c1ccccc1 | nt | -8.1 | 11.3 | i | -6.5 | -7.5 | 0.4 | -1.5
COc1ccc(OCC(=O)N2CCN(C(=O)Cc3ccccc3)CC2)cc1 | -18.0 | 6.5 | -18.4 | i | 13.8 | -11.0 | 1.2 | 4.2
Cc1ccc(C(=O)N2CCN(c3ccc(C(F)(F)F)cn3)CC2)cc1 | -13.9 | -3.0 | nt | i | 9.2 | -1.2 | 3.6 | 3.9
Cc1cccc(NC(=S)NN(Cc2ccccc2)c2ccccc2)c1C | -13.6 | -3.1 | -11.7 | i | 1.6 | 18.3 | -4.3 | -4.2
N#Cc1c2n(c3c(=O)n(CC(=O)c4ccc([N+](=O)[O-])cc4)cnc13)CCCCC2 | nt | 4.3 | 11.1 | i | 3.9 | 1.8 | 8.7 | 1.8
CCCc1cc(C(=O)NNC(=S)NCC2CCCO2)cs1 (stereo not drawn) | -23.8 | 3.8 | 1.3 | i | 1.2 | 1.7 | -2.7 | -3.8
CC(C)(C)C(=O)C(Oc1cccc2nonc12)n1cncn1 (stereo not drawn) | -11.9 | 0.3 | nt | i | 8.5 | -6.1 | 0.3 | 0.0
COC(=O)c1sccc1NC(=S)Nc1ccc(OC)cc1 | nt | -7.4 | 4.8 | i | -5.5 | -11.4 | -2.7 | -1.5
Cc1cc(NC(=O)c2ccc(F)cc2)n(C)n1 | nt | -2.8 | -2.2 | i | -3.2 | -12.3 | 1.3 | 0.0
COc1ccc(NC(=O)NCc2ccc3c(c2)OCO3)c(OC)c1 | -12.6 | -8.7 | -3.4 | i | -2.6 | -9.8 | 0.1 | -0.1
O=C(Nc1ncc([N+](=O)[O-])s1)C1CCN(S(=O)(=O)c2cnc[nH]2)CC1 | -10.6 | 13.9 | nt | i | -2.8 | 1.5 | -9.0 | -2.8
NS(=O)(=O)c1ccc(CCNC(=O)c2ccc3c(c2)OCCO3)cc1 | nt | 6.8 | -9.4 | i | -6.0 | -3.2 | -1.5 | 0.9
CC(C)NC(=S)N/N=C/c1cccnc1 | nt | 5.5 | 0.2 | i | -3.4 | -18.5 | 0.7 | -2.4
CCc1nc2c(OCCOc3ccccc3)cccn2c1N(C=O)Cc1ccc(OC)cc1 | -10.4 | nt | 3.5 | nt | nt | nt | 7.4 | 12.1
C/C(=N\N=C1\NC(=O)C(CC(=O)Nc2ccc(C)c(Cl)c2)S1)C(C)(C)C (stereo not drawn) | nt | -4.0 | 3.2 | i | -6.1 | -15.9 | 0.7 | -0.2
C=CCOC(=O)C1=C[C@H](c2ccc(Br)cc2)[C@@H](CCCO)[C@H](OCC)O1 | 5.1&0.9 | 1.0 | 12.4[16.7 µM] | i | 3.7 | 5.7 | -2.0 | -3.1
Cc1cc(C)cc(NC(=O)N2CCC(NC(=O)c3ccc(F)cc3)CC2)c1 | nt | -6.2 | 36.2 | i | -2.7 | -1.6 | 0.2 | -3.4
CC(=O)Nc1ccc(NC(=O)C2CCCN(C(=O)c3ccc(Cl)cc3)C2)cc1 (stereo not drawn) | 4.9 | 0.7 | -6.0 | i | 13.5 | -4.3 | 0.7 | -0.7
O=C(O)c1ccccc1SCc1cn2cc(Br)ccc2n1 | nt | -7.6 | -7.1 | i | 13.0 | -9.9 | 4.0 | 7.2
CC1CCN(S(=O)(=O)c2cccc(C(=O)NCc3cccs3)c2)CC1 | -9.2 | -15.5 | nt | i | -0.2 | 0.8 | 3.9 | -5.8

High-throughput results: PubChem, several laboratories
